Resorufin fluor – qHTS Assay for Spectroscopic Profiling in Resorufin Spectral Region | Compound fluorescence, resorufin region 547/598 nm, buffer; stronger effect = higher value | max dye-equivalent concentration, M | 59,000 compounds, 0.04% hits; active = above 10 nM dye equivalent; inconclusive = 1 to 10 nM; inactive = 1 nM or less; a few of its hits are not listed in these tables; also: highest value over a series up to 38 µM
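Tris 100 mM pH 8.0; compound added, 15 min RT; CCD imager read, ex 547 nm/em 598 nm; signal normalized to resorufin standard curve (six concentrations per plate) as dye-equivalent concentration.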
TSHR ag – qHTS Assay for Agonists of the Thyroid Stimulating Hormone Receptor; Potency, µM (titrated, usually from 57.1 µM), inactives show at the highest dose activation, usual class: activators; 73,000 compounds, 0.48% hits; Thyrotropin receptor (Homo sapiens), P16473; HEK293-CNG-TSHR cells (CNG channel as cAMP sensor), membrane potential dye, cAMP; active = well fitted activation curve of enough size with the parental cells flat; inconclusive = any curve in the parental cells; inactive = parental cells flat and receptor cells flat or falling; also: potency is read from the fitted curve at half-maximal effect; % of control where 0% means no effect; weak receptor curves with flat parental cells got no call and are not listed
Target sequence (P16473 whole entry, looked up): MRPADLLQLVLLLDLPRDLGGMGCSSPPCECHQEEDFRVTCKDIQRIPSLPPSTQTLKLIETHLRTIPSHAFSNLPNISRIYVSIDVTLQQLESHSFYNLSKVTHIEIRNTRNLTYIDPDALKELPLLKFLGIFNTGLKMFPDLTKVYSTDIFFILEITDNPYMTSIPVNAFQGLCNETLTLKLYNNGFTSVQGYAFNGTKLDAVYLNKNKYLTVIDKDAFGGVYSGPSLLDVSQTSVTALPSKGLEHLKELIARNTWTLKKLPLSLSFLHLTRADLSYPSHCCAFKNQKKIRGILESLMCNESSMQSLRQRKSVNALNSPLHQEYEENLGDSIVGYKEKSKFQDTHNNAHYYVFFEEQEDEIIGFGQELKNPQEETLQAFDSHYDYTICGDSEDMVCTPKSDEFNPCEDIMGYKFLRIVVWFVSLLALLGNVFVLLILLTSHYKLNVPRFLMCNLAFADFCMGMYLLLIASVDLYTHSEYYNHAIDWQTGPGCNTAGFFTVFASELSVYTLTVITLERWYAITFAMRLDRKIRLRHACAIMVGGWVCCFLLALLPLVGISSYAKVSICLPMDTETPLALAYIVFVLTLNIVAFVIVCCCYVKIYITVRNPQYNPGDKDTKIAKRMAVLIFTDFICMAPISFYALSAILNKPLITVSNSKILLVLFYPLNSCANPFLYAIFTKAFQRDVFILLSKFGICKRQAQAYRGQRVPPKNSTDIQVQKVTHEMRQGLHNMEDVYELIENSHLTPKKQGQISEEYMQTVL
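HEK 293 cells stably expressing TSHR and a cAMP-gated CNG channel; parental CNG-only cells as counterscreen. Cells preloaded 60 min with membrane potential dye plus 100 uM RO 20-1724, then compound 30 min; fluorescence read at 590 nm.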
A488 fluor – qHTS Assay for Spectroscopic Profiling in A488 Spectral Region | compound autofluorescence, A488 spectral region, dye equivalency; stronger effect = higher value | max dye equivalency, M | 59,000 compounds, 0.1% hits | AID 591, 2007; active = above 10 nM dye equivalent; inconclusive = 1 to 10 nM; inactive = 1 nM or less; about half of its hits are not listed in these tables;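 also: highest value over a series up to 38 µM; compound alone in buffer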
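Read-out: relative fluorescence at 480/540 nm, expressed as Alexa 488 dye-equivalent concentration from a six-point A488 standard included per plate. Conditions: 100 mM Tris, pH 8.0; 15 min incubation, room temperature.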
AID923 – qHTS Assay for Allosteric/Competitive Inhibitors of Caspase-1: Spectroscopic Profiling in AFC Spectral Region. compound fluorescence, AFC spectral region (405/520 nm); almost no hit is shown here. Potency, µM (titrated, usually from 57.5 µM), inactives show at the top dose fluorescence increase, actives largely listed as activators. 75,000 compounds, 1.1% hits; active = well fitted activation curve with a large enough effect; inconclusive = small, poorly fitted or top-dose-only effect;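 also: potency is read from the fitted curve at half-maximal effect; 0% is about no effect; scaled to a free AFC standard on each plate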
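Compound autofluorescence profiled at 405 nm ex/520 nm em during kinetic caspase 1 run (50 nM enzyme, 5 uM Ac-WEHD-AFC, HEPES pH 7.5, 10 mM DTT). Titration up to 57 uM; baseline from regression intercept, normalized to AFC standard curve.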
A647 autofl – qHTS Assay for Spectroscopic Profiling in A647 Spectral Region; Compound fluorescence, A647 channel (570/671 nm), Tris buffer; max dye-equivalent concentration, M; 59,000 tested, under 10 active; AID 592, 2007; active means above 1 µM dye equivalent; inconclusive means 0.1 to 1 µM; inactive means 0.1 µM or less;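 also: values scaled relative to a standard on each plate; highest value over a series up to 38 µM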
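Each compound's intrinsic fluorescence at 570 nm excitation and 671 nm emission is measured across its concentration series in 100 mM Tris, pH 8.0, after 15 min at room temperature, and reported relative to an A647 curve.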
Starred values were filed as active, the others as inactive; i = inactive; ? = inconclusive; · = not tested or not shown; & = joins results of further samples; [ ] = another dose, or the depositor's remark. Not all compounds are listed; rates above refer to the full screens.

SMILES	Resorufin fluor	TSHR ag	A488 fluor	AID923	A647 autofl
COc1ccc2[nH]c(C)c(CCN3C(=O)C4C5C=CC(C5)C4C3=O)c2c1 (stereo not drawn)	·	-2.4%[11.4 µM]	·	4.8%	·
Cc1ccc2c(c1)-c1c(cnn1CC(=O)Nc1ccccc1N1CCN(C)CC1)CO2	·	13.5%	·	2.8%	·
COc1cccc(C(=O)CSc2nnnn2C)c1	i	0.4%	i	-0.8%	1e-09
COc1cccc(-c2nn(C)c3sc(C(=O)Nc4ccc5c(c4)OCCO5)cc23)c1	i	28.6%	i	7.4%	2.3e-09
NC(=O)c1cc[n+](CC2=C(C(=O)[O-])N3C(=O)[C@@H](NC(=O)Cc4cccs4)[C@@H]3SC2)cc1	i	-5.7%[25.6 µM]	i	2.0%[25.7 µM]	1e-09
Cc1noc(C)c1CN1C(=O)NC(Cc2ccccc2)(Cc2ccccc2)C1=O	i	25.1µM*	i	-1.8%	7.4e-09
COc1cc2c(cc1NC(=O)CSc1nnc(Cc3cccs3)n1C)oc1ccccc12	i	19.5%	i	2.0%	4.2e-09
CCCn1c(SC2C(=O)CC(C)(C)CC2=O)nc2c1c(=O)n(C)c(=O)n2C	i	11.1%	i	-2.6%	1.9e-09
Cc1noc(C)c1C(=O)N1CCC2(CCCN(Cc3ccc(C#N)cc3)C2)CC1	i	-5.5%	i	-1.7%	2.31e-08
CCOc1ccc(OCC)c(NC(=O)CCCN2C(=O)c3cccnc3C2=O)c1	i	-2.0%	i	1.5%	1e-09
O=c1c(CCc2ccccc2)nc2cncnc2n1Cc1ccccc1Cl	i	-2.1%	i	2.4%	3.14e-08
Cc1cc(=O)oc2cc(O)cc(O)c12	·	?	·	?	·
CCCCN(C)S(=O)(=O)c1ccc(C(=O)Nc2nnc(CSC)o2)cc1	i	-2.1%	i	-0.5%	1e-09
CC(C)Cn1cc(C(=O)N2CCN(c3ccccn3)CC2)c2c3ccccc3n(C)c2c1=O	i	21.3%	i	-2.1%	1.5e-09
O=C(Nc1ccc(F)c(F)c1)c1cccnc1	i	-0.9%	i	0.0%	1e-09
COc1cc(C(=O)N(C)c2nnc(-c3cccnc3)s2)cc(OC)c1OC	i	1.3%	i	0.6%	1.44e-08
CCc1c(C(=O)NC2CCCCC2)[nH]c(C)c1C(C)=O	i	22.5%	i	0.7%	1e-09
COc1cccc(C(=O)NCCN2CCN(c3ccc(Cl)cc3)CC2)c1	i	21.6%	i	-5.5%	1.99e-08
COC(=O)c1cccc(COC(=O)CNC(=O)c2ccco2)c1	i	?	i	0.5%	3.7e-09
Cc1c(NC(=O)C2CCCN2S(=O)(=O)c2ccc(Cl)cc2)c(=O)n(-c2ccccc2)n1C (stereo not drawn)	i	0.4%	i	-1.2%	1.5e-09
Cc1cc(C(=O)Nc2sc(C)c(-c3ccc(F)cc3)c2C(N)=O)no1	i	7.4%	i	18.6%	1.01e-08
O=C(Nc1ccc2oc(Cc3ccc(Cl)cc3)nc2c1)c1cccnc1	i	?	i	0.8%	1e-09
CN(C)/C=N/c1c(C(=O)NCc2ccccc2)nnn1Cc1ccccc1	i	-1.0%	i	-0.3%	7.4e-09
CCCCNC1C(CC)C(CCC)C(C#N)(C#N)C1(C#N)C#N (stereo not drawn)	i	5.2%	i	0.4%	1e-09
C/C(Cl)=C\CSc1nnc2n(N)c(=O)c3ccccc3n12	i	·	i	-1.1%	6.6e-09
CCOC(=O)Cc1csc(NC(=O)CSc2nnc(C3CC3)n2C)n1	i	1.3%	i	-0.5%	4.1e-08
C=CCN(CC=C)S(=O)(=O)c1ccc2nc(NC(=O)C(C)C)sc2c1	i	-5.0%	i	-0.8%	1.41e-08
CCOC(=O)C1CCN(S(=O)(=O)c2cccc3nonc23)CC1	i	7.8%	i	1.1%	1.39e-08
O=C(CCCN1C(=O)c2ccccc2C1=O)NCCCN1CCOCC1	i	-0.9%	i	-1.2%	1e-09
COc1ccc(C(C)=O)cc1CSCCC(=O)O	i	·	i	·	1e-09
CC(=O)N1CCC2(CCCN(c3ccc(-c4ccccc4)cc3)C2)CC1	i	-16.9%	i	4.1%	1e-09
O=C(CCOc1ccccc1)OCC(=O)c1cc2ccccc2o1	i	17.1%	i	0.5%	1.22e-08
COc1ccc2nc(NC(=O)CN(c3ccc(C)cc3)S(=O)(=O)c3c(C)nn(C)c3C)sc2c1	i	8.3%	i	-1.1%	1e-09
Cn1c(=O)[nH]c(=O)c2c1nc(NC1CCCCC1)n2CC(=O)NC1CCCCC1	i	5.1%	i	0.0%	1e-09
COC(=O)CSc1nnc(CNC(=O)c2ccccc2OC)n1C	i	20.6%	i	1.7%	3.46e-08
Cc1ccc(Nc2nc(C)c(CCC(C)C)c(=O)[nH]2)cc1	i	4.2%	i	-0.8%	1.67e-08
Cc1ccc(Cc2cnc(N)s2)o1	i	4.9%	i	3.1%	1.29e-08
Cc1occc(=O)c1O	·	-7.7%	·	-2.8%	·
COc1ccc2ccccc2c1C1CC(=O)N2CN(C3CCCCC3)CSC2=C1C#N (stereo not drawn)	·	?	·	-2.1%	·
Cc1ccc(C(C(=O)NC2CCCC2)N(Cc2ccco2)C(=O)CCC(=O)Nc2ccccn2)cc1 (stereo not drawn)	i	0.1%[11.4 µM]	i	-1.8%	2.33e-08
CC1Cc2ccccc2N1S(=O)(=O)c1cccc(C(=O)NCCCO)c1 (stereo not drawn)	i	-9.9%	i	-0.6%	4.44e-08
O=C(NCc1ccco1)c1cccc(F)c1	i	1.8%	i	2.4%	3.1e-09
O=C(O)C1C(C(=O)O)C(C(=O)O)C1C(=O)O (stereo not drawn)	i	-10.1%[11.4 µM]	i	-0.2%[11.5 µM]	1e-09
O=C(OCc1nnc(-c2ccccc2)o1)c1ccco1	i	2.1%	i	-0.4%	1e-09
Cn1c(C(C#N)C(=O)c2sc3ccccc3c2Cl)nc2ccccc21 (stereo not drawn)	i	-1.5%	i	8.1%	1e-09
O=C(N/N=C1/C[C@@H](O)[C@@H](O)[C@@H]2[C@@H]3C(=O)N(C4CCCCC4)C(=O)[C@H]3CC[C@H]12)OCc1ccccc1	·	2.5%[11.4 µM]	·	-3.2%[11.5 µM]	·
CCN1C(=O)CC(C(=O)Nc2ccc(F)cc2)SC1=Nc1ccc2c(c1)OCO2 (stereo not drawn)	i	-7.5%	i	-2.9%	1e-09
CCOC(=O)C(C(=O)OCC)C(C)C#CCN1CCCCC1 (stereo not drawn)	·	10.4%	·	1.3%	·
Cc1nc(NCc2ccccc2)c2nc(-c3ccccc3)n(CC(C)(C)CN(C)C)c2n1	·	?	·	0.3%	·
COc1ccc(C(=O)CSc2nnc(COc3ccccc3)n2Cc2ccco2)cc1	i	?	i	1.0%	3.25e-08
COc1ccc(C(NC(=O)c2ccco2)c2ccc(OC)c(OC)c2)cc1OC	i	23.2%	i	-0.3%	1.03e-08
Cc1cccc(CNc2ccnc(-c3ccccc3Cl)n2)c1	i	22.3%	i	1.3%	1e-09
COC(=O)c1ccc(C2C3=C(Nc4nnnn42)c2ccccc2OC3)cc1 (stereo not drawn)	i	?	i	17.9%	1e-09
CCCn1c(SCC(=O)NC2CCCCC2)nnc1-c1ccncc1	i	-2.3%	i	-0.5%	1e-09
CO[C@H]1COC(=O)C/C=C\[C@H](C)[C@H](OC)COC(=O)[C@@H](C)COC(=O)C/C=C\[C@@H]1C	·	18.6%&-1.7%[11.4 µM]	·	0.5%&0.5%[11.5 µM]	·
CCOC(=O)C(C)Sc1nc(-c2ccc(OC)cc2)nc2c1c(=O)n(C)c(=O)n2C (stereo not drawn)	·	12.8%	·	1.5%	·
O=C(CSc1nnnn1Cc1ccccc1)c1ccccc1	i	?	i	-0.1%	3.86e-08
CCC1(C)Cc2c(sc3c2c(=O)n(C)c2nnc(SCc4ccccc4)n32)CO1 (stereo not drawn)	i	·	i	·	3.17e-08
O=C(CSc1nc2c(sc3ccccc32)c(=O)n1CCO)NCC1CCCO1 (stereo not drawn)	i	-1.2%	i	0.1%	1e-09
Cn1c(=O)cc(SCC(=O)Nc2cccnc2)c2ccccc21	i	0.6%[11.4 µM]	i	0.5%	2.73e-08

Next records follow.
SMILES	Resorufin fluor	TSHR ag	A488 fluor	AID923	A647 autofl
Cc1ccc(CS(=O)(=O)CCC(=O)NCc2cccs2)cc1	i	-6.0%	i	-1.5%	6.4e-09
N#Cc1ccccc1NC(=O)c1ccc(-c2ccccc2Cl)o1	i	?	i	0.2%	3.94e-08
Cc1ccc(Nc2nnc(SCc3cc(=O)n4ccsc4n3)s2)c(C)c1	i	24.3%	i	-2.2%	4.9e-09
Brc1ccccc1-c1nnc2sc(-c3ccc4c(c3)OCCO4)nn12	i	?	i	-0.3%	1e-08
Cc1nn(C)c(C)c1S(=O)(=O)N(CC(=O)NCc1ccco1)c1ccc(C(C)C)cc1	·	17.9%	·	-3.0%	·
CCC/C=C(\CCC)C(NC(=O)OCC(C)C)c1ccccc1 (stereo not drawn)	·	8.4%	·	0.5%	·
N=c1n(CCN2CCCCC2)c2ccccc2n1CC(O)c1cccc(Br)c1 (stereo not drawn)	i	13.7%	i	-1.9%	1e-09
CCCCN(CCCC)C(=O)CSc1nnc2n(C)c(=O)c3c4c(sc3n12)CCCC4	i	·	i	·	1e-09
O=C(O)C1CSC(c2ccncc2)N1 (stereo not drawn)	i	-3.2%	i	5.4%	3.7e-09
CN(C)CN1C(=O)S/C(=C2/C(=O)N(CN(C)C)c3ccccc32)C1=O	i	-4.5%[11.4 µM]	i	-1.9%[11.5 µM]	1e-09
CN1c2ccccc2C(C)(C)C12C=Cc1cc(O)ccc1O2 (stereo not drawn)	·	7.7%	·	-1.9%	·
Nc1nccc(Nc2ccc(S(N)(=O)=O)cc2)n1	i	-4.1%[11.4 µM]	i	1.3%[11.5 µM]	1.52e-08
COc1ccc(NC(=O)C2C(=O)N(CCO)C3(C)CC2c2ccccc2O3)cc1 (stereo not drawn)	i	12.9%	i	-2.1%	1.12e-08
O=C(O)CCN1C(=O)c2ccncc2C1=O	i	2.4%[11.4 µM]	i	2.2%	2.76e-08
CC(C)CNC(=O)c1cccc(Cn2cc(Cl)cn2)c1	i	0.8%	i	0.2%	8.9e-09
COc1ccc(OCCN(C)Cc2ccccc2)cc1	i	?	i	0.1%	3.5e-09
CC(=O)NC(CCS(C)(=O)=O)C(=O)Nc1ccc(Oc2ccccc2)cc1 (stereo not drawn)	·	-1.2%[11.4 µM]	·	1.1%	·
CCCCCOc1ccccc1C(=O)NCC(=O)O	i	·	i	·	1e-09
CCc1ccccc1N1CC23C=CC(O2)C(C(=O)O)C3C1=O (stereo not drawn)	·	-11.1%	·	3.7%	·
O=C(NCC1CCCO1)C1CCN(S(=O)(=O)c2cccnc2)CC1 (stereo not drawn)	i	?	i	-0.8%	1.07e-08

Entries above containing a cyano group:
SMILES	Resorufin fluor	TSHR ag	A488 fluor	AID923	A647 autofl
Cc1noc(C)c1C(=O)N1CCC2(CCCN(Cc3ccc(C#N)cc3)C2)CC1	i	-5.5%	i	-1.7%	2.31e-08
CCCCNC1C(CC)C(CCC)C(C#N)(C#N)C1(C#N)C#N (stereo not drawn)	i	5.2%	i	0.4%	1e-09
COc1ccc2ccccc2c1C1CC(=O)N2CN(C3CCCCC3)CSC2=C1C#N (stereo not drawn)	·	?	·	-2.1%	·
Cn1c(C(C#N)C(=O)c2sc3ccccc3c2Cl)nc2ccccc21 (stereo not drawn)	i	-1.5%	i	8.1%	1e-09
N#Cc1ccccc1NC(=O)c1ccc(-c2ccccc2Cl)o1	i	?	i	0.2%	3.94e-08

Bioassay records: PubChem, National Center for Advancing Translational Sciences (NCATS)
